Tg IFNy HTS = blocks Toxoplasma gondii growth in the presence of IFN-gamma. hit rate 3.8% among 69,000. Toxoplasma gondii growth in IFN-gamma-treated host cells; active compounds read low; reference of the scale not given here. activity change, negative = inhibition, %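 (about 20 µM by stock and volumes)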;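 active means below -70%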;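 further: host cells are HeLa cells infected with Toxoplasma gondii; parasite growth read as luciferase light; one replicate is shown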
* = called active by the depositor. The list is partial, so the mix of outcomes need not match the whole.

SMILES | Tg IFNy HTS
COC(C)(C)CC(C)NCc1cc(-c2ccco2)on1 (stereo not drawn) | -3
NC1CCN(C(=O)c2cccc3ccnn23)CC1 | -46
CCO[C@H]1COC[C@@H]1NC(=O)c1nnc2nc(C)cc(C)n12 | 54
COCCN1C[C@@H](C(=O)NCCc2cccs2)C[C@@H]2OCC[C@@H]21 | -3
CCN1c2cc(C)ccc2-n2cccc2C12CCN(C(=O)Nc1ccccc1Cl)CC2 | -110*
Cc1nn(Cc2nnc(SCc3c(F)cccc3Cl)n2C)c(C)c1Br | -24
CN1c2ccc(C#Cc3cccnc3)cc2[C@@H]2[C@@H](CCN2C(=O)CN2CCOCC2)[C@H]1CO | 9
O=S(=O)(c1ccc2c(c1)CCCC2)N1CCC2(CC1)NCCN=C2NCc1ccc2c(c1)OCO2 | -34
O=C(CSc1nc2ccccc2[nH]1)OCc1ccccc1 | 5
C[C@H](CO)N1C[C@H](C)[C@H](CN(C)C(=O)c2ccc(N3CCN(C)CC3)cc2)OCc2cn(nn2)CCCC1=O | -46
CCOc1ccc(C(=O)NCCc2sc(-c3ccc(F)cc3)nc2C)cc1 | -69
CCN1c2ccccc2C(=O)NC12CCN(C(=O)Nc1ccc3c(c1)OCO3)CC2 | 223
O=C(C1CCC2(CCN(Cc3ccccc3F)CC2)O1)N1CCCO1 (stereo not drawn) | -18

Reprinted at random: six entries already listed.
SMILES | Tg IFNy HTS
O=C(CSc1nc2ccccc2[nH]1)OCc1ccccc1 | 5
CCN1c2cc(C)ccc2-n2cccc2C12CCN(C(=O)Nc1ccccc1Cl)CC2 | -110*
COCCN1C[C@@H](C(=O)NCCc2cccs2)C[C@@H]2OCC[C@@H]21 | -3
CN1c2ccc(C#Cc3cccnc3)cc2[C@@H]2[C@@H](CCN2C(=O)CN2CCOCC2)[C@H]1CO | 9
CCO[C@H]1COC[C@@H]1NC(=O)c1nnc2nc(C)cc(C)n12 | 54
C[C@H](CO)N1C[C@H](C)[C@H](CN(C)C(=O)c2ccc(N3CCN(C)CC3)cc2)OCc2cn(nn2)CCCC1=O | -46
